Ab BasE inh: BasE siderophore enzyme inhibitors, primary screen, biochemical, Acinetobacter baumannii ATCC 17978, fluorescence polarization; purified BasE, fluorescence polarization binding displacement; inhibition, % (no concentration beside the values); 84,000 tested, 0.1% active;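 active means both replicates above 25% with normal brightness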;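 further: 0% = negative plate control signal and 100% = positive plate control signal; stock transfer was 100 nL into about 30 µL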
KSHV LANA nucl: inhibitors of KSHV LANA-nucleosome binding, primary screen, biochemical, fluorescence polarization, FITC-LANA1-23, chicken nucleosomes | FITC-LANA1-23 / chicken nucleosome fluorescence polarization; active compounds read low | z-score (no concentration beside the values) | 51,000 tested, 0.3% active | AID 720717, 2013;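 active means both repeat wells score below -2 in polarization z-score versus plate sample wells, excluding overly bright wells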;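 further: 100 nL library stock added to about 30 µL; numbers are from one replicate; some results filed as inactive read as strong as hits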
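Assay system: FITC-LANA peptide and chicken nucleosomes; input: 240 nM purified chicken nucleosomes (480 nM peptide binding sites), final; also added: 50 nM FITC-LANA1-23 probe; medium: TEN-BT buffer, pH 7.5; doses: pin-transferred compound, 100 nL; times: 10–45 min, room temperature; technique: fluorescence polarization; replication: duplicates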
An asterisk follows results filed as active; / = not tested or not shown.

no.	smiles	Ab BasE inh	KSHV LANA nucl
1	COc1ccc(NS(=O)(=O)c2cc(-c3cc(C)[nH]n3)ccc2C)cc1OC	-8.0	2.3
2	Fc1ccc(C(NC2CCCC2)c2nnc(-c3ccccc3)o2)cc1 (configuration not stated)	-0.4	0.4
3	CC(c1ccccc1)N(C)CN1C(=O)c2ccccc2C1=O (configuration not stated)	-0.8	/
4	COc1ccc(N=Nc2c(-c3ccc(OC)cc3)[nH]oc2=O)cc1	33	-0.16
5	Cc1ccc(S(=O)(=O)N2CCN(C(=O)COC(=O)c3ccccc3C)CC2)c(C)c1	0.3	/
6	Cc1nc(NCCCCCO)c2nnn(Cc3ccc(F)cc3)c2n1	-1.6	0.7
7	COc1ccc2c(c1)nc(SCC(=O)C(C)(C)C)n2C	-2.5	1.7
8	Cc1ccccc1NC(=S)N(CCN(C)C)C(C)c1ccncc1 (configuration not stated)	1.4	0.05
9	COC(=O)c1cc(C)sc1NC(=S)NCCn1cc(Cl)cn1	3.9	-0.24
10	Cn1c(=O)c(C(=O)CNc2ccc(S(=O)(=O)N3CCCC3)cc2)c(N)n(Cc2ccccc2)c1=O	-1.1	/
11	CC(C)c1ccc(O)c(N)c1	1.9	/
12	OCCNCC12CC3CC(CC(C3)C1)C2	1.4	-0.14
13	Cc1occc1C(=O)N1CCN(S(=O)(=O)c2ccc(F)cc2)CC1	-1.6	/
14	CC(C)Cc1nc2sc3c(c2c(=O)o1)CCCCC3	2.4	-0.83
15	CC(C(=O)Nc1ccc(S(=O)(=O)N2CCCC2)cc1)N1CCN(c2ccccc2O)CC1 (configuration not stated)	-3.7	/
16	Clc1ccc(NCc2nnc(-c3ccccc3)o2)cc1	-0.6	0.16
17	O=C1CCCC1Sc1nnnn1-c1ccccc1 (configuration not stated)	0.4	/
18	CC(C)(C)OC(=O)N1CCCC(C(=O)CC#N)C1 (configuration not stated)	-3.1	-0.43
19	Cc1nn(-c2ccccc2Cl)c(Cl)c1C=Nc1ccc2[nH]c(=O)[nH]c2c1	0.6	/
20	Nn1c(SCC(=O)Nc2ccccc2)nncc1=O	0.8	0.0075
21	O=C1CCC(C(=O)OCC(=O)c2ccc(Cl)cc2)=NN1	-2.0	/
22	CS(=O)(=O)c1ccc(C(=O)NCCc2ccc(S(N)(=O)=O)cc2)cc1	1.5	/
23	O=C1CS/C(=N/C(=O)NCC2CCCC(CNC(=O)/N=C3\NC(=O)CS3)C2)N1 (configuration not stated)	1.2	/
24	CC(=O)N[C@@H](CCC(=O)O)C(=O)O	-0.3	-0.68
25	O=c1[nH]cnc2sc3c(c12)CCCC3	-5.2	0.85
26	O=C(c1ccccc1)c1ccc2nc(-c3ccco3)c(-c3ccco3)nc2c1	7.4	-0.17
27	CC(C)(C)N1CSC(=S)N(Cc2ccco2)C1	-1.1	-0.73
28	CC1(C)C2CC=C(/C=C(\C#N)C(N)=O)C1C2 (configuration not stated)	4.5	/
29	COC(=O)CNC(=O)C1CCN(c2nc(C)cc(-c3ccccc3)n2)CC1	3.1	0.51
30	O=C(Nc1ccc(F)c(F)c1)c1nc2ncccn2n1	-6.1	0.8
31	O=C(O)CC1(O)CC(=O)N(c2ccccc2)C1=O (configuration not stated)	1.8	-0.32
32	CCOC(=O)C1=NN(c2ccccc2)C2(C(=O)c3ccccc3C2=O)C1c1ccc(C)cc1 (configuration not stated)	2.5	/
33	COC(=O)N1CCCc2cc(C)ccc21	1.4	0.075
34	Cc1ccc(N2C(=O)CC(c3ccc4c(c3)OCO4)C3=C2CC(C)(C)CC3=O)cc1 (configuration not stated)	-1.6	-0.75
35	COc1ccc(-c2ccc(SC)nn2)cc1OC	-2.9	-0.51
36	CCC(C)(C)NC(=O)Cc1c[nH]c2ccccc12	-1.3	/
37	Cn1cc(S(=O)(=O)N2CCOCC2)cc1C(=O)N1CCN(CCOc2ccc(Cl)cc2)CC1	-1.8	0.12
38	CC(=O)N1CCOc2ccc(S(=O)(=O)N3CCC(C(=O)NCc4ccc(Cl)cc4)CC3)cc21	1.0	-0.9
39	COc1ccccc1/C=C1\C(=O)/C(=C/c2ccccc2OC)C2CCC1N2C	3.1	-0.018
40	CC(C)n1c(SCc2ccccc2)nnc1C1CCCN(CC(N)=O)C1 (configuration not stated)	0.8	-0.078
41	O=c1[nH]c(O)c(/C=N/N2CCOCC2)c(=O)[nH]1	1.9	-0.1
42	CSc1nnc(-c2cc(Br)ccc2NC(C)=O)c(=O)[nH]1	2.7	-0.49
43	O=C(O)c1cccc(Cl)c1C(=O)O	1.9	/
44	CN1CCC(N2CCCC(C(N)=O)C2)CC1 (configuration not stated)	3.5	-1.3
45	C=CCn1c(NC)nc2c1c(=O)[nH]c(=O)n2C	-3.1	0.057
46	COc1ccc(C2C=C(c3ccccc3)NC(=S)S2)cc1OC (configuration not stated)	-2.6	/
47	CN(C)C=Nc1nc2ccccc2nc1Cl	-0.6	/
48	COC(=O)CNC(=O)c1cc(OC)c(OC)c(OC)c1	1.2	/

Structures from the list above that have a cyano group:
no.	smiles	Ab BasE inh	KSHV LANA nucl
18	CC(C)(C)OC(=O)N1CCCC(C(=O)CC#N)C1 (configuration not stated)	-3.1	-0.43
28	CC1(C)C2CC=C(/C=C(\C#N)C(N)=O)C1C2 (configuration not stated)	4.5	/

Next structures
no.	smiles	Ab BasE inh	KSHV LANA nucl
49	O=C(OCC(=O)N(Cc1ccccc1)C1CCS(=O)(=O)C1)c1ccccc1C(F)(F)F (configuration not stated)	3.4	/
50	CCOC(=O)C1CCN(C(c2cccnc2)c2c(C)[nH]c3ccccc23)CC1 (configuration not stated)	2.8	/
51	CCSc1nnc(-c2cccc(S(=O)(=O)N(C)C)c2)n1-c1cccc(C)c1	0.4	/
52	COCC1=C(C(=O)OC(C)OC(=O)OC(C)C)N2C(=O)[C@@H](NC(=O)/C(=N/OC)c3csc(N)n3)[C@H]2SC1 (some centres not stated)	/	0.12
53	Cc1ccc(NC(=O)CN2C(=O)S/C(=C\c3ccc(C)o3)C2=O)cc1	-5.2	1.7
54	O=C(NCC(c1ccco1)S(=O)(=O)c1ccc(Cl)cc1)c1ccc2c(c1)OCO2 (configuration not stated)	0.4	-1.7
55	OC(COCc1ccc(Cl)cc1)CN1CCCCCC1 (configuration not stated)	-4.6	/
56	COc1cc(OC)cc(C(=O)OC(C)C(=O)Nc2ccc(C(N)=O)cc2)c1 (configuration not stated)	-4.7	/
57	O=C(Nc1cnc2ccccc2c1)N1CCOCC1	0.0	-0.01
58	CC(/C=C1\SC(=S)N(CCC(=O)NC2CCCCC2)C1=O)=C\c1ccccc1	3.3	/
59	O=C(c1ccccc1)N1CCN(C(=O)c2cccc(S(=O)(=O)N3CCCC3)c2)CC1	-1.1	/
60	CN(C)c1cc(=O)n2c(n1)SCCC2	0.3	-1.1

Reprinted from the part before: three compounds, then new ones.
no.	smiles	Ab BasE inh	KSHV LANA nucl
58	CC(/C=C1\SC(=S)N(CCC(=O)NC2CCCCC2)C1=O)=C\c1ccccc1	3.3	/
59	O=C(c1ccccc1)N1CCN(C(=O)c2cccc(S(=O)(=O)N3CCCC3)c2)CC1	-1.1	/
60	CN(C)c1cc(=O)n2c(n1)SCCC2	0.3	-1.1
61	N#Cc1c(N)sc2c1-c1ccccc1CC2	0.1	-0.29
62	COc1ccc(C2NC(C(=O)O)Cc3[nH]cnc32)cc1 (configuration not stated)	2.7	1.1
63	C1=C(c2ccccc2)CC(c2ccccc2)=C1	-1.5	0.067
64	CCc1ccc(Nc2nc(Nc3ccc(OC)c(OC)c3)nc(N3CCOCC3)n2)cc1	1.1	0.87
65	CC(C)(C)n1nc(C2CC2)cc1NC(=O)c1ccccc1	1.8	0.4
66	COc1cccc(COCC(O)CN2CCC(C(N)=O)CC2)c1 (configuration not stated)	0.1	/
67	O=C(Nc1ccccc1)Nc1cc(C2CC2)nn1-c1ccccc1	-4.3	/
68	O=C(O)c1ccc(/C=N/n2cc(-c3ccccc3)[nH]c2=S)cc1	0.9	/
69	CC(C)(C)c1cc(C(C)(C)C)n(-c2ccc(C(=O)O)cc2)n1	0.6	1.9
70	Cn1ccsc1=NC(=O)/C=C/c1ccc(S(=O)(=O)N2CCOCC2)cc1	1.5	/
71	COc1ccc(CNC(=O)C(c2cccs2)N(Cc2cccs2)C(=O)Cc2cccs2)cc1 (configuration not stated)	3.4	0.15
72	Cc1ccc(SC2=CCS(=O)(=O)C2)cc1	/	0.13
73	CC(C)(N)CN1CCCC1	-3.3	1.5
74	CON(C)S(=O)(=O)c1cccc(C(=O)Oc2ccc(-n3cnnn3)cc2)c1	-1.0	/
75	FC(F)(F)c1nc(Cl)c2ccccc2n1	0.0	/
76	Cc1cccc(C(=O)NCc2nc(-c3ccccc3Cl)no2)c1	-3.4	0.28
77	Cc1cc(S(=O)(=O)N2CCCC2c2ccc(F)cc2)cc(C)c1F (configuration not stated)	/	0.37
78	CCN1c2ccccc2-c2nc3ccccc3n2C1c1ccsc1 (configuration not stated)	-3.7	0.4
79	Cc1ccc(-n2c(=O)oc3ccc(Cl)cc3c2=O)cc1Cl	0.9	/
80	COC(=O)CSc1nnc2n1C(C)(C)Cc1ccccc1-2	-1.7	-0.69
81	CCC(C)NC(=O)C1CCN(S(=O)(=O)N2CCC3(CC2)OCCO3)CC1 (configuration not stated)	3.6	-0.42
82	O=C(c1ccccc1)c1cnc2ccccn2c1=O	0.1	/
83	COCCNC(=O)c1ccc2c(c1)C(=O)N(C)C2=O	-1.6	-0.7
84	CCN(CC)C1=NC(=O)C(CC(=O)Nc2cccc(C(=O)NCc3ccco3)c2)S1 (configuration not stated)	0.0	/
85	COc1ccccc1NC(=O)CN(Cc1ccco1)C(=S)NCc1ccccc1	-2.2	/
86	CC(C)Nc1nn(CN2CCN(C(=O)c3ccccc3)CC2)c(=S)s1	1.4	/
87	COc1ccc(-c2noc(=O)n2CCCC#N)cc1OC	-2.5	2.9
88	O=C1CC(c2ccccc2)CC(O)=C1C=NCc1cccnc1 (configuration not stated)	-1.5	1.1
89	CC(C)n1c(SCC(=O)N(Cc2ccccc2)C(C)(C)C)nc2c1c(=O)n(C)c(=O)n2C	0.8	0.26
90	O=C(NC1CCCC1)C1CCCN(S(=O)(=O)c2ccc3[nH]c(=O)ccc3c2)C1 (configuration not stated)	-1.6	-0.27
91	CC1=C(C(=O)Nc2ccccc2C(=O)NCc2ccc3c(c2)OCO3)SCCO1	0.6	2.3
92	Cc1cc(NNS(=O)(=O)c2ccc(OC(F)(F)F)cc2)n2ncnc2n1	-0.6	/
93	Cc1cc(C(=O)COC(=O)CCc2nc3ccccc3c(=O)[nH]2)c(C)n1C	-0.8	/
94	O=C(CN1C(=O)NC(Cc2ccccc2)C1=O)c1ccc(S(=O)(=O)N2CCCC2)cc1 (configuration not stated)	0.9	/
95	CNc1cncc(C(=O)O)c1	3.2	-0.093
96	C/C(=N\NC(=O)c1cc2ccccc2cc1O)c1ccc(N)cc1	0.5	0.67
97	COC(=O)c1ccc(/C=N/c2c(-c3ccco3)nc3ccccn23)cc1	2.0	0.068
98	CC(=O)N/N=C(/C)c1ccccc1	1.7	0.12
99	Cc1ccc(NCCOc2ccccc2)c(C)c1	-1.1	-0.081
100	C(/C=C/c1ccco1)=NN1CCN(C2c3ccccc3-c3ccccc32)CC1	-0.4	-0.42
101	O=C(NCCO)c1cc2ccccc2oc1=O	0.2	/
102	Cc1nn(C2CCS(=O)(=O)C2)c(Cl)c1/C=C1\SC(=S)NC1=O (configuration not stated)	3.3	/
103	S=C1CSc2ccccc2N1	-2.1	0.1
104	COc1ccc(C(C(=O)NC2CCCCC2)N(Cc2ccc3c(c2)OCO3)C(=O)c2cnccn2)cc1OC (configuration not stated)	0.3	-0.6
105	Cc1cc(N)ccc1-c1ccc(CO)o1	-1.3	0.073
106	CC(C)CNC(=O)C1CCCN(C(=O)NCc2ccccc2)C1 (configuration not stated)	0.6	-0.69
107	CCN(CC)CCCNc1nc2cc(OC)c(OC)cc2c2nc(-c3cccnc3)nn12	1.8	0.089
108	COC(=O)C1=Cc2cc(Cl)ccc2OC1	/	0.22

Continued; the last two above are carried over.
no.	smiles	Ab BasE inh	KSHV LANA nucl
107	CCN(CC)CCCNc1nc2cc(OC)c(OC)cc2c2nc(-c3cccnc3)nn12	1.8	0.089
108	COC(=O)C1=Cc2cc(Cl)ccc2OC1	/	0.22
109	Cn1cnnc1SCC(=O)N1CCCC1	-2.7	1.7
110	Cc1cc2oc(=O)cc(COC(=O)c3cccc(N(C)C)c3)c2cc1C	1.4	/
111	O=C(Nc1ccc(NC(=O)c2ccccc2F)cn1)c1ccco1	-3.9	-0.95
112	COc1ccc(OC)c(S(=O)(=O)Nc2cc3c(cc2N2CCOCC2)n(C)c(=O)n3C)c1	0.5	0.018
113	NS(=O)(=O)c1ccc(CCNC(=O)CN2CC(=O)Nc3ccccc32)cc1	-1.4	/
114	CCc1ccc(CCC(=O)Nc2ccc(S(N)(=O)=O)cc2)o1	-4.5	1.1
115	O=C(c1ccccc1)c1nc2c(ccc3ccccc32)o1	1.0	/
116	C=CCSc1nnc2c(n1)OC(c1ccc(-c3ccc(F)cc3)o1)N(C(C)=O)c1ccccc1-2 (configuration not stated)	-0.3	/
117	CN=C(Nc1ccnn1C(C)C)c1ccccc1	0.2	/
118	COC(=O)c1sccc1NC(=O)c1ccc(C)cc1	/	2.5
119	CCc1nc2ccc(C(=O)NCCCN3CCCCC3)cc2nc1CC	-0.8	0.082

Screens (PubChem BioAssay)

A portion of the library. The share of hits here may be higher or lower than overall.
